Screening data: PubChem BioAssay, several laboratories
MT1-MMP act inh – inhibitors of human MT1-MMP activation | HT1080 RFP-PRO-GFP cells, GFP/RFP ratio fluorescence, overnight; percent of plate control window, DMSO zero | 360,000 compounds, 0.061% hits | GFP/RFP ratio change, % at 20 µM | P50281;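 active means GFP/RFP ratio change of at least 30% with cell ATP level not reduced by more than half and red fluorescence within 50% of control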; further: strong numbers were not always called active
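Material – HT1080 RFP-PRO-GFP cells · Control set – DMSO wells and RFP-L50D-GFP cells · Incubation – overnight cell settling, then overnight compound exposure, 37 °C, 5% CO2 · Compound dosing – single-point 20 µM compound, 1% DMSO · Read-out – GFP/RFP fluorescence ratio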
PABP polyA inh – blocks human PABP binding to poly(A) RNA; P11940; fluorescence polarization; inhibition, % at 35 µM; 290,000 compounds, 1% hits; AID 2014;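 active means 50% or more with normal probe brightness, or confirmed in later tests; about a fifth of its hits are not listed in these tables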;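 further: calls also rest on retests at 20 µM and on dose response follow-up; controls were probe without protein and protein plus probe with vehicle; some compounds called inactive have numbers as strong as hits; many hits fall short of the cut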
eIF4H FP inh – inhibitors of RNA binding by human eIF4H | eIF4H fluorescence polarization binding assay | Q15056 | inhibition, % at 35 µM | 290,000 compounds, 0.94% hits;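 active means 50% or more with normal probe brightness, or confirmed in later tests; about a fifth of its hits are not listed in these tables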;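 further: calls also rest on retests at 20 µM and on dose response follow-up; 0% = protein and probe with vehicle and 100% = probe without protein; strong numbers were not always called active; many hits fall short of the cut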
Env fusion inh – inhibitors of HIV Env-mediated cell fusion | HeLa-JRFL Env/CEM21 cell fusion, luciferase | inhibition, % at 12.3 µM | 360,000 compounds, 1.1% hits;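 active means mean replicate inhibition score of at least 50 and every replicate individually at or above 50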;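 further: 0% = plate neutral controls and 100% = maraviroc near 300 nM; one replicate is shown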
UUG fidelity – alters start codon recognition fidelity in yeast | S. cerevisiae UUG-firefly luciferase reporter, luminescence/redox ratio | activity score, % at 18.7 µM | 350,000 compounds, 0.13% hits;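 active means replicate mean at a twofold rise or more, about +100% in these data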;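 further: firefly luciferase made from a UUG start codon reports start codon fidelity; reporter light over untreated wells divided by growth signal over untreated wells; some hits fall short of that in this replicate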
CSC inhib – blocks cancer stem cells; cancer stem cell-like cells viability, luminescence; inhibition, % at 7.5 µM; 300,000 compounds, 1.1% hits;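 active means mean at 75% or more and at least half the replicates too; tested in HMLE shEcad cells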;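 further: 0% = median of negative and 100% = median of positive control wells; the first replicate is given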
Rce1 inh – inhibitors of yeast Ras-converting enzyme; Q03530; yeast membranes, quenched prenylated peptide cleavage fluorescence; calls only; 290,000 compounds, 0.27% hits; AID 2563;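 active means fall in fluorescence gain of 50% or more versus controls, with final raw signal at or below 3038400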;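 further: plate controls were neutral control wells for no effect and wells lacking membranes for full effect; tested at 10 µM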
Target sequence (Q03530 whole entry, looked up): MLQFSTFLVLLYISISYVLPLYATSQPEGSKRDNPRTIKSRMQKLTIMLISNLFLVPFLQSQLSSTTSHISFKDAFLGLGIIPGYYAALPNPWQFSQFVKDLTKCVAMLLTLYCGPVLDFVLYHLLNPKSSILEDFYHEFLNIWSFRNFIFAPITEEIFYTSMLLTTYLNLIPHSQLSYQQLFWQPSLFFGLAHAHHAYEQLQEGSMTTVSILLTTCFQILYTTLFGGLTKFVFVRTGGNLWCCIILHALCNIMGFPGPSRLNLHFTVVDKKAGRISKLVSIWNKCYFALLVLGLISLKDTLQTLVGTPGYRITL
MT1-MMP act inh RFP – also measured in MT1-MMP act inh; calls as there; RFP signal change, %; measured here: RFP expression control read;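 0 = vehicle wells; hits needed this value within 50% of zero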
An asterisk follows results filed as active; i = inactive; . = not tested or not shown.

SMILES	MT1-MMP act inh	MT1-MMP act inh RFP	PABP polyA inh	eIF4H FP inh	Env fusion inh	UUG fidelity	CSC inhib	Rce1 inh
CC1=CCC2([N+](=O)[O-])CN(CC(=O)O)CC1([N+](=O)[O-])C2 (stereo not drawn)	-6.3	3.4	6.4	5.2	0.8	.	-4.5	i
CCCNc1nc(OCC(F)(F)F)nc(OCC(F)(F)F)n1	2.4	1.4	-8.4	2.3	.	-10.2	-2.2	i
COc1cc(CCCN2C(=O)C(=O)NC[C@@H]2C(C)O)cc(OC)c1OC (stereo partly drawn)	0.1	5.8	2.2	1.0	8.5	-17.8	-0.1	i
CCCS(=O)(=O)n1nc(-c2ccccc2)cc1N	2.4	1.0	7.1	-1.5	3.2	-24.7	0.6	i
O=C(/C=C/c1ccccc1)Nc1cccc(C(=O)NC2CC2)c1	1.2	-2.1	.	.	-54.5	-20.0	.	.
CCOC(=O)c1ccc(NC(=O)CN(C)S(=O)(=O)c2ccc(OC)cc2)cc1	-0.4	-2.0	-10.1	-2.6	.	-8.2	-4.6	.
CN(CC(=O)NC1CCCCC1)S(=O)(=O)c1ccc2c(c1)c(=O)n(C)c(=O)n2C	1.9	2.1	.	.	19.5	-10.8	-4.6	i
CC(=O)c1c(C)[nH]c(C(=O)Nc2nccs2)c1C	1.5	1.9	3.2	2.7	-64.5	-25.0	22.0	i
CC(=O)c1ccc(NC(=O)C(C)OC(=O)CCN=C2NS(=O)(=O)c3ccccc32)cc1 (stereo not drawn)	1.5	6.1	.	.	5.1	-18.5	.	i
O=C(Nc1ccc2c(c1)CCC2)Nc1ccccc1Cl	-6.4	1.3	-0.6	-5.7	.	-24.1	10.2	i

Structural class, those above with nitrogen in an aromatic ring (4)
SMILES	MT1-MMP act inh	MT1-MMP act inh RFP	PABP polyA inh	eIF4H FP inh	Env fusion inh	UUG fidelity	CSC inhib	Rce1 inh
CCCNc1nc(OCC(F)(F)F)nc(OCC(F)(F)F)n1	2.4	1.4	-8.4	2.3	.	-10.2	-2.2	i
CCCS(=O)(=O)n1nc(-c2ccccc2)cc1N	2.4	1.0	7.1	-1.5	3.2	-24.7	0.6	i
CN(CC(=O)NC1CCCCC1)S(=O)(=O)c1ccc2c(c1)c(=O)n(C)c(=O)n2C	1.9	2.1	.	.	19.5	-10.8	-4.6	i
CC(=O)c1c(C)[nH]c(C(=O)Nc2nccs2)c1C	1.5	1.9	3.2	2.7	-64.5	-25.0	22.0	i

Following part.
SMILES	MT1-MMP act inh	MT1-MMP act inh RFP	PABP polyA inh	eIF4H FP inh	Env fusion inh	UUG fidelity	CSC inhib	Rce1 inh
COC(=O)c1ccccc1NC(=O)CCCCCn1nnc2ccccc2c1=O	-2.3	-0.9	12.5	2.8	20.9	-6.8	-13.2	i
O=C1CC(C(=O)O)C2(CCCC2)O1 (stereo not drawn)	4.6	2.4	.	.	-59.3	-17.4	-11.7	i
COc1ccc(NC(=O)CCNC(=O)c2ccco2)cc1S(=O)(=O)N(C)C	19.9	17.2	13.4	8.2	-31.6	-13.4	5.6	i
Cc1csc(NC(=O)CN2CCCCCC2)n1	-1.3	0.0	0.3	-12.6	.	-30.7	-25.2	i
Cc1ccc(C)c(N2CCN(C(=O)CCCCCn3c(=S)[nH]c4ccc(N5CCOCC5)cc4c3=O)CC2)c1	-10.8	-31.4	30.5	1.4	51.1	-19.4	51.8	i
CC(C)CCNC(=O)C1CC(c2ccc(C(F)(F)F)cc2)=NO1 (stereo not drawn)	6.3	-0.4	14.5	2.0	0.2	-14.0	9.3	i
O=C(Cc1cccc(NC(=O)C2CCCN(C(=O)C3CC3)C2)c1)Nc1ccc(C(=O)N2CCCCC2)cc1 (stereo not drawn)	3.0	3.1	.	.	-5.1	22.0	.	.
CC1(C)CC(=O)C(C=Nc2ccc3c(c2)OCO3)=C(O)C1	-1.2	3.3	0.3	1.8	.	.	-4.3	i
CC12CCC(C(=NO)C1=O)C2(C)C (stereo not drawn)	1.7	-0.3	.	.	-7.0	-21.6	.	.
Cc1nn(-c2ccccc2)c(C)c1[N+](=O)[O-]	1.3	2.9	16.0	-7.7	-5.0	.	-0.1	i
CN(C)c1ccc(-c2ccnc3c2CC(C)(C(=O)NCC2CC2)O3)cc1 (stereo not drawn)	-0.9	-4.0	.	.	42.6	-10.1	.	.
CC(C)C(=O)Nc1cccc(C(=O)NCCc2ccc(S(N)(=O)=O)cc2)c1	-3.1	3.6	9.9	-12.5	-7.4	6.1	.	i
Clc1nc(NCCc2ccccc2)c2cn[nH]c2n1	7.1	-5.5	.	.	20.0	-17.6	.	.
CC(C)(C)OC(=O)NCCCCCNC(=O)c1[nH]cnc1C(=O)Nc1cc(Br)ccc1F	-5.4	-18.1	.	.	5.8	-8.1	.	.
Cc1cnc(C(=O)Nc2ccc(N3CCCCC3)cc2)cn1	.	.	-4.7	7.0	-37.5	.	-7.9	i
CNC(=O)N/N=C(\N)c1ccccn1	1.1	4.7	4.3	8.4	7.8	2.5	-13.3	i
CN(CC(=O)NCC1CCCO1)S(=O)(=O)c1ccc2ccccc2c1 (stereo not drawn)	-2.0	-3.0	.	.	2.7	-4.6	.	.
CSc1nnc(-c2ccccc2SC)o1	2.0	4.0	3.8	-12.1	3.6	.	6.7	i
CC(C#N)Sc1nnc(-c2ccccc2F)n1C1CC1 (stereo not drawn)	-0.9	2.6	4.9	14.8	14.9	-9.2	-15.4	i
CC1CN(C(=S)Nc2ccccc2F)CC(C)O1 (stereo not drawn)	-1.7	-0.3	-8.9	2.1	-2.6	-13.2	-5.1	i
CCOC(=O)c1ccc(NC(=O)CCc2nnc3ccc(N4CCCC4)nn23)cc1	-6.0	-0.7	0.4	-17.8	0.3	-30.6	-6.0	i
Cc1ccccc1OCCC(=O)N(CC(=O)Nc1ccccc1C(F)(F)F)Cc1ccco1	-3.0	-5.3	.	.	10.1	-22.4	-3.8	i
Cc1ccc[n+](C(C)C(=O)Nc2ccc(C)c([N+](=O)[O-])c2)c1 (stereo not drawn)	1.6	1.9	5.6	4.6	4.1	-10.8	2.2	i
O=C(O)c1ccc(Nc2nc(-c3cccnc3)nc3ccccc23)cc1	.	.	25.7	34.9	.	.	-0.8	i
COc1ccc(/C=N/NS(=O)(=O)c2ccc(C)cc2)cc1	2.7	-0.9	-4.7	-3.6	-0.8	1.7	2.8	i
O=S(=O)(c1ccc(Br)s1)N1CCc2ccccc2C1	1.1	3.6	-14.0	-10.1	.	-2.2	-17.8	i
CCCCOCCCNC(=O)c1cccs1	1.4	-2.8	0.2	5.5	.	-10.0	-6.7	i
Cc1ccc(NC(=O)C(C)S)cc1 (stereo not drawn)	-1.8	1.6	12.5	1.1	-1.2	-28.7	-8.2	i
CCCN(CC(=O)Nc1ccc(F)c(F)c1F)CC(=O)Nc1c(C)n(C)n(-c2ccccc2)c1=O	-1.2	1.2	.	.	.	-4.6	2.4	.
O=[N+]([O-])c1ccc(COc2ncnc3ccccc23)cc1	-1.5	1.4	0.5	-3.5	-4.1	.	-13.4	i
O=C(O)CSCC(=O)Nc1ccc(S(=O)(=O)N2CCCCC2)cc1	-5.6	3.5	1.7	-9.9	.	-6.3	-10.1	i
Cn1c(N)c(S(=O)(=O)NCc2ccccc2)c(=O)n(C)c1=O	-0.7	3.2	.	.	11.0	-7.7	9.2	i
CC(C)NC(=O)c1cc(C2CCCCN2S(=O)(=O)c2cccs2)on1 (stereo not drawn)	4.2	4.7	.	.	8.1	-8.8	.	.
COc1ccc(Cl)cc1NC(=O)CN(C)CC(=O)Nc1ccc(Br)cc1	-1.0	0.3	-1.6	-3.1	19.0	.	61.1	.
O=C(Nc1ccccc1)c1nc[nH]c1C(=O)NCCCCNC(=O)c1[nH]cnc1C(=O)Nc1ccccc1	-4.7	-2.2	.	.	32.6	-20.2	17.0	.
CCOC(=O)C1=C(C)Nc2ccccc2N=C1NC(=O)C(CC)c1ccccc1 (stereo not drawn)	-1.6	-0.6	-3.4	-11.3	22.5	.	1.3	i
CCOC(=O)N1CCN(C(=O)CC(=O)Nc2ccc3nc4n(c(=O)c3c2)CCCCC4)CC1	-0.9	1.9	28.2	2.0	.	-1.0	.	i
Cn1c(SCC(=O)Nc2ccc3c(c2)OCCO3)nnc1-c1cccnc1	2.0	3.0	.	.	.	2.1	-4.9	i
COc1cccc(-c2cc(C(=O)Nc3c(C)n(C)n(-c4ccccc4)c3=O)no2)c1	-1.9	3.0	-3.2	-2.5	-125.2	-10.8	-7.9	i
CCOc1ccc(CNC(=S)NCc2ccc(OCC)cc2)cc1	-1.6	-1.4	-2.3	-16.5	12.7	.	20.5	i
CCCCN(C(=O)CCC(=O)Nc1cc(C)on1)C(C(=O)NC1CCCC1)c1ccc(F)cc1 (stereo not drawn)	0.8	1.3	4.3	-12.5	29.6	-5.8	-7.2	i
N#C/C(=N\Nc1ccc(Cl)cc1)C(=O)c1ccsc1	-1.3	-37.1	10.0	0.2	22.9	-1.1	60.6	i
CC1=C(C(=O)Nc2ccccc2)C(c2cccs2)n2nnnc2N1 (stereo not drawn)	0.0	2.1	6.5	6.5	.	-12.0	13.4	i
COc1ccc(CC(=O)OCC(=O)Nc2ccc3[nH]c(=O)[nH]c3c2)cc1OC	2.6	2.7	.	.	-37.0	-14.8	.	.
COc1ccc(OCC(=O)NNC(=S)NC(=O)C2CCCCC2)cc1	4.5	5.6	-12.0	8.7	27.0	-34.0	2.4	.
CC(C)(C)OC(=O)N1CCC(c2c(C(=O)O)cnn2-c2ccccc2Cl)CC1	-7.9	-1.0	5.6	4.1	-3.8	3.6	-3.7	i
Cc1ccoc1C(=O)Nc1cccc2ccccc12	-2.3	4.1	-6.7	-7.0	2.8	7.1	45.0	i
O=C(CCC(=O)N(CC(=O)NC1CCCC1)Cc1ccccc1)Nc1nccs1	1.8	1.1	-0.5	-5.6	10.3	-11.7	-3.3	i
O=C(CCN1C(=O)c2ccccc2C1=O)OCn1nnc2ccccc2c1=O	3.2	10.5	7.4	-11.2	-13.2	14.0	-5.2	i
CCc1cc(C(=O)c2ccc(OC)cc2)c(N)s1	3.4	0.5	9.1	-3.1	-0.8	0.6	1.2	i

(continued)
SMILES	MT1-MMP act inh	MT1-MMP act inh RFP	PABP polyA inh	eIF4H FP inh	Env fusion inh	UUG fidelity	CSC inhib	Rce1 inh
O=C(CN(C(=O)C1CSC(=O)C1)c1ccc(F)cc1)NCc1ccc2c(c1)OCO2 (stereo not drawn)	-0.9	2.1	2.9	3.8	3.2	-4.8	13.3	i
Cc1ccc(N/C(SCc2ccccc2C)=C(/C#N)C(=O)NCc2ccco2)cc1C	-23.9	-15.4	-6.9	-1.9	-16.4	-19.4	21.8	i
Cn1cc2ccc([N+](=O)[O-])cc2n1	0.8	4.2	15.6	18.1	-3.2	.	-13.1	i
O=C1CC(c2ccc(Cl)cc2)CC(=O)C1CS(=O)(=O)c1ccccc1 (stereo not drawn)	-2.6	-4.8	9.8	-3.6	25.5	.	4.0	i
NS(=O)(=O)c1ccc(CNC(=O)Cc2ccccc2F)cc1	1.3	9.7	-10.0	-5.8	6.7	.	-16.0	i
COc1ccc(-c2nnc(NC(=O)c3cc(C)on3)s2)cc1	-1.5	3.4	-4.3	0.5	-145.7	.	-5.3	i
O=C(Oc1ccccc1C(=O)Oc1ccccc1)c1cccnc1	0.0	-0.5	-1.8	5.5	-11.0	.	-8.8	i
Cc1ccc(N(CC(=O)Nc2c(C)n(C)n(-c3ccccc3)c2=O)S(C)(=O)=O)cc1C	1.3	0.5	-6.9	-5.0	.	-1.5	.	i
O=c1c(C(c2ccccc2)c2c(O)sc3ccccc3c2=O)c(O)sc2ccccc12	3.7	2.1	39.4	35.5	-0.6	1.2	88.2*	i
COc1ccc(C2NC(c3ccc(OC)cc3)C(c3ccccc3)C(=O)C2c2ccccc2)cc1 (stereo not drawn)	-5.4	-8.0	8.5	-0.7	12.6	.	13.3	i
CCc1nc(NC(=O)c2sc(C)nc2C)sc1C(=O)OC	2.1	2.0	2.2	-1.8	3.0	-13.7	-12.4	i

Not all compounds are listed. The share of hits here may be higher or lower than overall.
